Assay outcomes from PubChem.
CDC25B-CDK2 inh – human CDC25B-CDK2/CyclinA binding inhibition. AID 1259370. HTRF CDC25B-CDK2/CyclinA binding, anti-His/anti-Flag; active compounds read high. z-score (concentration not given with the values). P30305+P24941. 94,000 tested, 0.72% active;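 also: score is relative to mean and SD of negative controls; strong numbers were not always called active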
HIV TAR-Tat – HIV-1 TAR-Tat binding disruption | 100,000 tested, 0.6% active | HIV-1 TAR RNA, Tat peptide displacement FRET; active compounds read high | z-score (no concentration beside the values) | AID 1259389;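 also: score is relative to mean and SD of negative controls; some compounds called inactive have numbers as strong as hits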
* = called active by the depositor; · = no result given; & = joins results of further samples.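 The calls were made as follows: active = z-score from 3 up in half or more of its runs; inactive = the rest.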

SMILES	CDC25B-CDK2 inh	HIV TAR-Tat
CCSc1nc(=O)n(C2CCCC2)c2c1CCC2	-1.8	0.55
COc1ccc(Nc2nnc(Cc3ccncc3)c3ccccc23)c(OC)c1	-1.1	0.52
Cc1ccc(-c2nc(SCc3cc(=O)n4c(-c5ccccc5)csc4n3)n[nH]2)cc1	·	-0.56
CC(C)NC(=O)CC1Oc2ccc(Cl)cc2NC1=O (configuration not stated)	-2.3	-0.15
CCOC(=O)c1c(NC(=O)Cn2nc(C(F)(F)F)c3c2CCCC3)sc(C)c1C	-1.4	0.86
CCOC(=O)Nc1ccc2c(c1)N(C(=O)N1CCN(C)CC1)c1ccccc1CC2	-1.2	0.86
O=S1(=O)N=C(Nc2nnc(SCc3ccccc3)s2)c2ccccc21	-1.1	0.95
CCOCCCNC(=O)C1CCCN(c2nnc(N3CCCCC3=O)s2)C1 (configuration not stated)	·	0.42
CC1Cc2ccccc2N1C(=O)CC(C)S(=O)(=O)c1ccc2c(c1)NC(=O)CO2 (configuration not stated)	·	-0.06
Cc1oc(-c2cccc(Cl)c2)nc1CN1CCN(S(=O)(=O)c2cccc3nsnc23)CC1	·	-0.01
Cc1ccccc1-n1cc2c(c1-c1cccc(Br)c1)c(=O)n(C)c(=O)n2C	-5.2	2.2
CCN1CCN(c2nc(NCCN3CCOCC3)nc3c2cnn3C)CC1	·	1.8
CSc1ccccc1NC(=O)Cn1nc(C(F)(F)F)c2c1CCC2	0.61	-0.1
CCN1C(=O)C2(c3ccccc31)c1c(oc3ccc(F)cc3c1=O)C(=O)N2CCCOC(C)C (configuration not stated)	-2.5	0.51
O=C(Nc1ccccc1C(F)(F)F)N1CCN(c2ccc3nnc(-c4ccccc4)n3n2)CC1	-0.15	·
O=C(NC1CCCC1)C1CC(=O)N(CCc2c[nH]c3ccc(Cl)cc23)C1 (configuration not stated)	-2	0.69
O=C(O)CC(C(=O)O)C(O)c1ccccc1 (configuration not stated)	1.7	0.59
CCOC(=O)N1CC=C(c2c(C)nn(C)c2N)CC1	-2.5	1
CN(CC(=O)NC1CS(=O)(=O)CC1Cl)S(=O)(=O)c1ccc2c(c1)c(=O)n(C)c(=O)n2C (configuration not stated)	-1.8	·
COc1ccc(-c2[nH]nc3c2C(c2ccc(C)cc2)C2=C(CC(C)(C)CC2=O)N3)cc1 (configuration not stated)	-0.73	-0.83
Cc1cc(=O)[nH]c(SCC(=O)N2c3ccccc3CCc3ccccc32)n1	-0.69	-1.8
CN(Cc1ccccc1)C(=O)C1CC(c2ccc(F)cc2)=NO1 (configuration not stated)	0.52	0.62
COc1cccc(C(=O)OCc2cc(=O)n3c4c(sc3n2)CCCC4)c1	·	0.87
O=C(O)COc1ccc2occ(C(=O)c3cccs3)c2c1	-1.9	·
CCc1nc(-c2ccc(-c3ccc(OC)cc3)nc2OC)no1	-0.48	-0.29

Following part.
SMILES	CDC25B-CDK2 inh	HIV TAR-Tat
CCC(C)NC(=O)c1cc(C)no1 (configuration not stated)	-0.95	-0.93
C=CCn1c(=O)c2ccc(C(=O)NCc3ccc4c(c3)OCO4)cc2n(Cc2ccc(C)cc2)c1=O	-2.2	-0.24
CO[C@H]1O[C@@H]2O[C@@]3(C)CC[C@H]4[C@H](C)CC[C@@H]([C@H]1C)[C@@]24OO3	·	1.9
c1ccc(-n2cc(-c3noc4ccccc34)cn2)cc1	0.18	1.2
O=C(O)CNC(=O)C(CS)Cc1ccccc1 (configuration not stated)	-0.52	1.7
O=S1(=O)C=CC(c2ccccc2)C1 (configuration not stated)	-1.8	-1
N#Cc1cc2c(nc1SCC(=O)Nc1ccc(Br)cc1)CCC2	-2	-0.39
Cc1cc(-c2ccc(S(=O)(=O)Nc3ccc(C)c(Cl)c3)s2)on1	·	-0.78
Cc1nc2nc(-c3cccnc3)[nH]n2c(=O)c1Cc1ccccc1	-1.9	1.3
CCCc1nnc(NC(=O)c2cc(=O)c3ccc(C)cc3o2)s1	-1.8	-0.35
C=CCSc1nnc(Cn2c(=O)sc3ccccc32)n1C	-1.3	·
O=C(c1cc(S(=O)(=O)N2CCCC2)c[nH]1)N1CCN(c2ccccc2)CC1	·	2.2
O=C(CSc1nnc2sc3ccccc3n12)Nc1nccs1	1.4	1.6
Cc1c(CNCc2cccs2)c(C(=O)O)c(C)n1-c1ccc(Cl)cc1	·	1.4
CN(C)C(CNC(=O)NC1CCCCC1)c1cccnc1 (configuration not stated)	-0.46	0.9
O=c1c(-c2ccccc2)c(N2CCc3ccccc32)c1=O	·	1.4
CCc1cc2c3c([nH]c2cc1S(=O)(=O)N1CCCCC1)CC(C)(C)CC3=O	·	1.3
CCOC(=O)c1c(C)oc2nc(C)nc(N(C)C3CCCCC3)c12	·	-0.07
CCOc1cc(C2C(C(=O)OC)=C(C)NC3=C2C(=O)CC(c2ccc(OC)cc2)C3)cc(Cl)c1O (configuration not stated)	-1.6	1.1
O=C(COCc1cc(-c2cccs2)on1)N1CCN(c2ccccc2)CC1	·	-0.63
COc1cccc(NC(=O)CN2N=NC3C(=O)N(c4ccc(Br)cc4)C(=O)C32)c1 (configuration not stated)	·	-1.4
Cc1ccc2c(c1)CC[C@H]1CC(=O)CC[C@]21C	·	0.52
COc1ccc(-c2nc(NCc3ccccn3)c3ccccc3n2)cc1	·	-0.69
Cc1ccc2nc(N3CCN(c4ccc(F)cc4)CC3)c3nnnn3c2c1	·	-0.31
Cc1ccc(-c2nnc3ccc(SCC(=O)NCc4ccco4)nn23)cc1	-1.6	·

The results go on.
SMILES	CDC25B-CDK2 inh	HIV TAR-Tat
O=C(O)c1cc(-c2cc(Br)ccc2F)nc2n[nH]c(-c3ccccc3)c12	·	1.1
O=C(NCC1COc2ccccc2O1)C1CCC(CNc2c(N3CCCC3)c(=O)c2=O)CC1 (configuration not stated)	-1.6	·
COC(=O)Cc1ccc2oc3cc(OC)ccc3c(=O)c2c1	-1.6	·
CCCc1nn2cc(-c3cccc(Br)c3)nc2s1	-1.9	2.1
CCOc1cc(C2C(C#N)=C(N)Oc3n[nH]c(-c4ccccc4)c32)ccc1OC(=O)N1CCOCC1 (configuration not stated)	-0.22	0.8
N#Cc1cccc(C#N)c1Oc1ccc(S(=O)(=O)NCc2ccco2)cc1	-1.4	·
Clc1ccc2sc(SCc3ccccc3)nc2c1	-1.2	·
CCOC(=O)c1c(S(=O)(=O)N2CCC(c3ccccc3)C2)c(C)n(C)c1C (configuration not stated)	·	-0.38
Cc1nnc(SCc2cc(=O)c3ccccc3[nH]2)s1	·	0.92
CC(C)(C)C(=O)c1snc(Nc2ccc(Cl)cc2F)c1N	-0.46	-1.1
O=c1[nH]c(SCCCOc2ccc(Cl)cc2)nc2c1CCC2	-2.8	0.41
Cc1cc2c(cc3c(SCc4ccccc4F)nnc(C)n32)o1	·	1.5
O=C(Nc1nc(-c2nc3ccccc3s2)cs1)C1=COCCO1	·	-0.58
COc1ccccc1N1CCN(Cc2cc(Cl)c(O)c3ncccc23)CC1	-0.21	0.64
O=C(NCc1cccs1)C1c2ccccc2C(=O)N(C2CCCC2)C1c1cccs1 (configuration not stated)	·	3
N#Cc1cccc(S(N)(=O)=O)c1	2.2	·
CCN(Cc1ccccc1)S(=O)(=O)c1ccc(-c2cc(C(F)(F)F)on2)s1	·	0.23
NC(=O)c1nc(-c2ccncc2)nc2c1[nH]c(=O)n2CC1CCCO1 (configuration not stated)	·	0.56
CCCn1nc(-n2cnnc2)c(NS(=O)(=O)c2ccc(CC)cc2)c1C	1.8	-0.12
CCSc1nc(-c2ccccc2)nc2c1CCCC2	1.2	·
CCCCn1cc(S(=O)(=O)c2ccc(OC)cc2)c(=O)c2cc(OC)ccc21	-3.5	0.12
CNC(=O)Nc1ccccc1-c1cc2ccccc2[nH]1	·	0.21
Nc1nc(N)c(Br)c(=O)[nH]1	-2.8	·
CCCNC(=O)Cn1c(-n2nc(C)cc2C)nc2c(c1=O)CCCC2	·	1.8
CCNC(=O)CC[C@@H](N)C(=O)O	·	1.5

New compounds follow:
SMILES	CDC25B-CDK2 inh	HIV TAR-Tat
CC1=C(c2ccc(C)cc2)S(=O)(=O)NC1=NCc1ccc(OC(C)C)cc1	-1.3	·
S=c1sc2ccccc2n1CCn1c(=S)sc2ccccc21	-4.8	·
Cc1cc(-c2ccc(S(=O)(=O)NC(C)(C)C)s2)on1	·	1
Cc1ccc(C)c(CC2C(=O)Nc3ccc(Br)cc32)c1 (configuration not stated)	-1.9	0.97
Cc1ccc(Cl)c2c1NC(=O)C2(O)c1c[nH]c2ccccc12 (configuration not stated)	-0.82	-0.82
Cc1cc(C)c2oc(C(=O)Nc3nnc(C)s3)cc(=O)c2c1	-2.8	-0.77
CSc1cccc(N2C(=O)N(Cc3ccc(F)cc3)C3CS(=O)(=O)CC32)c1 (configuration not stated)	·	-9.4
c1ccc(CCn2cnc3ccccc32)cc1	-0.99	0.91
Cc1ccc(SCc2cc(=O)[nH]c(Nc3nc(C)c4cccc(C)c4n3)n2)cc1	0.19	-0.2
Cc1cc(C(=O)NCCN(CC(C)C)CC(C)C)n(-c2ccccc2)n1	-0.69	·
Cc1cccc(-n2cc(-c3ccccc3)nc2SCC(=O)Nc2nccs2)c1	-2.6	·
CC(C)C1NC(=O)N(c2ccc(Br)cc2)OC1=O (configuration not stated)	-0.22	·
O=C(CSc1nc2ncccc2o1)Nc1nc2ccc(Br)cc2s1	·	0.32
Cc1nnc(SCC(=O)Nc2ccc3[nH]c(=O)[nH]c3c2)s1	-1.1	-0.19
Cc1oc(-c2ccc(Cl)cc2)nc1CSc1nnc(C)n2c1cc1sccc12	·	2.1
CCC(C)NC(=O)CCc1nnc2ccc(N3CCCCC3)nn12 (configuration not stated)	·	-0.13
CC1=CCc2c(c3ccccc3c(=O)n2Cc2ccccc2)-c2oc(C)cc21	-1.7	·
CCCCOC(=O)C1=C(C)NC2=C(C(=O)CC(C)(C)C2)C1c1ccc(OCCC)cc1 (configuration not stated)	0.14	0.93
COC(=O)c1cc(S(=O)(=O)Nc2ccc3c(c2)OCO3)c[nH]1	·	0.71
CCS(=O)(=O)c1ncc(Cl)c(C(=O)Nc2ccc(F)cc2)n1	2.4	1.5
O=C1C2CC=CCC2C(=O)N1Cc1ccccc1 (configuration not stated)	·	0.08
O=C(Nc1ccc2c(c1)OCO2)[C@@H](c1ccccc1)N1Cc2ccccc2C1=O	0.13	-0.62
CC(C)OC(=O)c1c(NC(=O)c2nc3ncccn3n2)sc2c1CCCC2	0.93	1.9
COc1ccc(-c2nnc3ccc(SCC(=O)N4CCCC4)nn23)cc1	-1.1	·
O=C(C1CCC(=O)N1S(=O)(=O)c1ccccc1)N1CCc2ccccc21 (configuration not stated)	·	1.3

(continued)
SMILES	CDC25B-CDK2 inh	HIV TAR-Tat
O=c1c(S(=O)(=O)c2ccc(Cl)cc2)cn(Cc2ccccc2)c2cc3c(cc12)OCO3	-1.4	-0.97
COCCCn1c(=O)c2sccc2n2c(CCCC(=O)NC3CCC(C)CC3)nnc12 (configuration not stated)	·	0.17
COc1ccc(Nc2ccc3cc(S(=O)(=O)N4CCCCC4)ccc3n2)cc1Cl	·	-2.6
CCOC(=O)c1cc(-c2ccccc2)n(-c2ccccc2)c1C	-0.72	·
O=C(O)c1ccccc1SC1CC(=O)N(c2ccccc2Cl)C1=O (configuration not stated)	-2.4	-1.3
CCCS(=O)(=O)Nc1ccc(-c2ccc(S(C)(=O)=O)nn2)cc1	·	-0.14
COc1cccc(-c2noc(-c3cccn4c(=O)c5ccccc5nc34)n2)c1OC	-0.53	0.11
CCCC1c2ccc(C)n2CCN1C(=O)Nc1ccc(Br)cc1F (configuration not stated)	-0.8	-12
CCC(C)NC(=O)C1CCC(CNc2c(N3CCCCC3)c(=O)c2=O)CC1 (configuration not stated)	-0.09	-0.05
Cc1ccc(-n2ncc3c(N4CCOCC4)ncnc32)cc1C	·	2.9
Cn1cc(S(=O)(=O)N2CCCC2)cc1C(=O)NC1CCCc2ccccc21 (configuration not stated)	·	2.3
CC1Cc2cc(S(=O)(=O)NCc3ccc4c(c3)OCO4)ccc2N1C(=O)C1CC1 (configuration not stated)	·	-1
CCc1nnc(NC(=O)CSCc2cc(=O)n3nc(C)sc3n2)s1	·	0.26
CC(C)NC[C@H](O)c1ccc(O)c(O)c1	0.23&-2.2	·

Gathered by group, the compounds so far with an aryl methoxy group (13)
SMILES	CDC25B-CDK2 inh	HIV TAR-Tat
COc1ccc(Nc2nnc(Cc3ccncc3)c3ccccc23)c(OC)c1	-1.1	0.52
COc1ccc(-c2[nH]nc3c2C(c2ccc(C)cc2)C2=C(CC(C)(C)CC2=O)N3)cc1 (configuration not stated)	-0.73	-0.83
COc1cccc(C(=O)OCc2cc(=O)n3c4c(sc3n2)CCCC4)c1	·	0.87
CCc1nc(-c2ccc(-c3ccc(OC)cc3)nc2OC)no1	-0.48	-0.29
CCOc1cc(C2C(C(=O)OC)=C(C)NC3=C2C(=O)CC(c2ccc(OC)cc2)C3)cc(Cl)c1O (configuration not stated)	-1.6	1.1
COc1cccc(NC(=O)CN2N=NC3C(=O)N(c4ccc(Br)cc4)C(=O)C32)c1 (configuration not stated)	·	-1.4
COc1ccc(-c2nc(NCc3ccccn3)c3ccccc3n2)cc1	·	-0.69
COC(=O)Cc1ccc2oc3cc(OC)ccc3c(=O)c2c1	-1.6	·
COc1ccccc1N1CCN(Cc2cc(Cl)c(O)c3ncccc23)CC1	-0.21	0.64
CCCCn1cc(S(=O)(=O)c2ccc(OC)cc2)c(=O)c2cc(OC)ccc21	-3.5	0.12
COc1ccc(-c2nnc3ccc(SCC(=O)N4CCCC4)nn23)cc1	-1.1	·
COc1ccc(Nc2ccc3cc(S(=O)(=O)N4CCCCC4)ccc3n2)cc1Cl	·	-2.6
COc1cccc(-c2noc(-c3cccn4c(=O)c5ccccc5nc34)n2)c1OC	-0.53	0.11
